Compound activity as filed in PubChem.
VDR inh: vitamin D3 receptor (human) inhibition. P11473. VDR-SRC2-3 peptide fluorescence polarization, 2 h. Potency, µM, inactives show max response, negative = inhibition, actives largely listed as inhibitors. hit rate 0.93% among 400,000. AID 504847; active means well fitted inhibition curve with a large enough effect; inconclusive means small, poorly fitted or top-dose-only effect, or another doubt; inactive means no such curve, though single readings can be large or run the other way; further: series mostly up to about 120 µM
Target sequence (P11473 whole entry, looked up): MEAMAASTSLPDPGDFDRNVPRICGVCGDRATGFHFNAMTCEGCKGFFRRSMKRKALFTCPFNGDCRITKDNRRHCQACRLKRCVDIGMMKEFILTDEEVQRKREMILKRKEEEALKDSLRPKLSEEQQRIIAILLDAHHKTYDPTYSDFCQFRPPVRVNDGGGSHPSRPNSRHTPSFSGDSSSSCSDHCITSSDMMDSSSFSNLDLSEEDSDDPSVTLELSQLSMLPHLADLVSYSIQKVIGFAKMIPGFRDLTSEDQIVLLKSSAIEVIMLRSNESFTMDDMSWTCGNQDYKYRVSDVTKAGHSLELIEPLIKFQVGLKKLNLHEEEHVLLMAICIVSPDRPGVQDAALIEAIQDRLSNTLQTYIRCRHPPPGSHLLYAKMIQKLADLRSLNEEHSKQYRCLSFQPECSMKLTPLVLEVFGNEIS
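VDR–SRC2-3 interaction, FP format. Cmpds 23 nl via pintool, brief spin, 2 h ambient incubation.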
Starred values were filed as active, the others as inactive; ? = inconclusive; & = joins results of further samples. On the % scale 0 is the no-effect control and ±100 the full control effect; potency means the concentration at half of the fitted maximal effect.

canonical_smiles,VDR inh
COc1ccccc1NC(=O)CSc1nc(O)cc(=O)n1C,11%
O=Nc1c(-c2ccccc2)[nH]n(-c2ccccc2)c1=O,3%
O=C(Nc1ccccc1F)c1nc(SCc2ccc(F)cc2)ncc1Cl,2%
COc1ccc([N+](=O)[O-])cc1NC(=O)CC(c1ccccc1)c1ccccc1,-16%
COc1ccc(C(=O)NCc2ccc3c(c2)OCO3)cc1S(=O)(=O)N1CCCC1,7%
CCCNc1nc2c(c(=O)n(C)c(=O)n2C)n1CC(O)COc1ccccc1 (stereo not drawn),-4%
Cc1cc2c(NC(=O)Nc3ccccc3)cccc2nn1,-7%
CCn1cc(/C=C/C(=O)Nc2c(C)nn(Cc3ccccc3)c2C)cn1,-14%
CCN(CC)S(=O)(=O)c1ccc(N2CCN(S(=O)(=O)c3ccccc3)CC2)nc1,28%
Cc1nonc1OC(C)CNCCNc1ccc([N+](=O)[O-])cc1 (stereo not drawn),-6%
O=C(Cn1cc2c(n1)CCCC2)Nc1ccccc1Br,-8%
Cn1cnc([N+](=O)[O-])c1NCc1ccccc1,-1%
Cc1onc(-c2c(Cl)cccc2Cl)c1-c1nnc(-c2ccc(Cl)cc2)o1,3%
Cc1ccc2oc(-c3ccc(NC(=O)c4cccc(F)c4)c(C)c3)nc2c1,9%
CCOC(=O)CC1C(=O)NCCN1S(=O)(=O)c1ccc(Br)cc1 (stereo not drawn),-3%
O=C(Cc1ccc([N+](=O)[O-])cc1)NC1CCCCCC1,-13%
CCOc1ccc(NC(=O)NNC(=O)c2cccnc2)cc1,-2%
CCOC(=O)c1sc(NC(=O)COC(=O)c2ccco2)nc1C,7%
O=P(C1=C(N2CCOCC2)/C(=C\c2ccccc2)CC1)(N1CCOCC1)N1CCOCC1,2%
Cc1[nH]nc(-c2ccc(O)cc2O)c1Oc1ccccc1,20%
Brc1ccc(OCc2nc(-c3ccccn3)n[nH]2)cc1,-4%
Cc1cccc(NC(=O)Cn2cnc3c(oc4ccccc43)c2=O)c1C,-8%
CSc1ncccc1C(=O)OCc1ccccc1F,-5%
COc1ccc(N2CCN(c3ccc(-c4nc(-c5cccc(C)c5)no4)cc3[N+](=O)[O-])CC2)cc1,14%
Cc1sc2nc(C3CC3)nc(N3CCN(S(=O)(=O)c4ccc(F)cc4)CC3)c2c1C,-8%
CN(CCOCCOc1ccc(Cl)cc1Br)Cc1ccccc1,2%
COc1ccc(Cl)cc1NC(=O)CN(C)C(=O)c1cc2c(F)cccc2s1,-5%
CN(c1ccccc1)S(=O)(=O)c1ccc(Cl)c(C(=O)NCc2ccco2)c1,-5%
Cc1noc(C)c1C(c1ccccc1)S(=O)(=O)c1ccccc1 (stereo not drawn),-11%
O=c1[nH]cnc2c1oc1ccccc12,-1%
COC(=O)c1ccc(NC(=O)CN2CCN(S(=O)(=O)c3cc(Cl)ccc3OC)CC2)cc1,1%
COc1ccc(NC(=O)N2CCCCCC2)cc1,8%
N/C(Cc1cccc2ccccc12)=N\OC(=O)COc1ccccc1,-4%
C=CS(=O)(=O)c1sc(Cl)c(N2CCOCC2)c1[N+](=O)[O-],?
Cc1ccnc(NC(=O)c2ccccc2NC(=O)C(C)(C)C)c1,3%
CCCn1c(OC)nc2c1c(=O)n(C)c(=O)n2C,3%
Cc1ccc(NS(=O)(=O)c2ccc3c(c2)NC(=O)CCS3)cc1F,0%&8%
Cn1c(=O)c2sccc2n2c(CCCC(=O)Nc3ccc(Oc4ccccc4)cc3)nnc12,-7%
Cc1nn(Cc2ccc(Cl)cc2)c(C)c1NC(=O)C1CC=CCC1C(=O)O (stereo not drawn),-1%
O=C(c1cc(-c2ccc(Br)cc2)on1)N1CCOCC1,12%
Cc1ccc2[nH]c(C)c(CCNC(=O)NC3CCCCC3)c2c1,-9%
COc1ccc(NC(=S)Nc2cnc3ccccc3c2)c(OC)c1,-15%
Cc1cc(C)n(CCCNC(=O)CCNS(=O)(=O)c2ccccc2C(F)(F)F)n1,11%
CC(C(=O)Nc1ccc(C(F)(F)F)cc1)N(C)CC(=O)N1CCN(Cc2ccccc2)CC1 (stereo not drawn),-6%
N#Cc1cccc(C#N)c1Oc1ccc(S(=O)(=O)Nc2ccccc2)cc1,1%
N#CCCCSc1nnc(Cc2ccc3c(c2)OCO3)o1,1%
Cc1cc(NC(=O)CSc2nnc3c4c(C)c(C)sc4ncn23)no1,17%
O=C(NC(=S)N1CCN(c2ccc(F)cc2)CC1)c1cccs1,2%
COc1ccc(C(=O)N(Cc2ccco2)C(C(=O)NC2CCCC2)c2ccc(O)cc2)cc1OC (stereo not drawn),5%
O=C(NNC(=O)c1ccc(Br)o1)c1ccc(NS(=O)(=O)c2cccs2)cc1,-5%
O=C(Nc1ccc(NC(=O)C23CC4CC(CC(C4)C2)C3)cn1)c1ccco1,-4%
Cc1ccc(NC(=O)CSc2ncnc3c2sc2ccccc23)cc1C,-2%
O=CN1Cc2[nH]c3ccccc3c2N(c2ccc(Cl)cc2)C1=O,2%
COc1ccccc1Nc1nn2c(=O)c3ccc(C(=O)NCc4cccs4)cc3nc2s1,13%
O=C(NCc1cccnc1)C1c2ccccc2C(=O)N1C1CCCCCCC1 (stereo not drawn),1%
Cc1cc(C(=O)O)c(CSc2ncn[nH]2)o1,4%
Cc1cc(C)nc(SCNC(=O)c2ccccc2)n1,-5%
COc1ccc(-n2nc(C(=O)Nc3nc4ccc(OC)cc4s3)c3ccccc3c2=O)cc1,-3%
COC(=O)c1ccccc1NC(=O)Cn1c(=O)n(CCCCC(=O)NCc2ccc3c(c2)OCO3)c(=O)c2ccccc21,2%
COc1ccc(-c2cc(=O)oc3cc(OCC(=O)Nc4ccc(CCO)cc4)ccc23)cc1,2%

The list continues:
canonical_smiles,VDR inh
O=C(Cn1nc(Cc2cccnc2)c2ccccc2c1=O)Nc1ccccc1F,-5%
CC(C)(C)c1ccc([C@@H](O)CCCN2CCC(C(O)(c3ccccc3)c3ccccc3)CC2)cc1,3%
CCc1nccn1S(=O)(=O)c1cc(Br)ccc1OC,-10%
CCN1C(=O)[C@H]2[C@H]3CN=C(SCC4CC4)N3[C@@](Cc3ccccc3)(C(=O)OC)[C@H]2C1=O,0%
c1ccc(COc2ccc(OCCCNC3CCCC3)cc2)cc1,9%
NC(=O)C1CCN(Cc2ccc(OCc3ccccc3)cc2)CC1,2%
CC[C@@]12C(=O)N(c3cccc(F)c3)C(=O)N1[C@H](c1ccc(Br)cc1)[C@@H]1C(=O)N(C(C)(C)C)C(=O)[C@@H]12,-11%
Cn1c2c(c3ccccc31)CCN(CCCCN1CCN(c3ccccc3)CC1)C2=O,-7%
N#CC1=C(N)C(C#N)(C#N)C2(C(=O)Nc3ccccc32)C2CCCC=C12 (stereo not drawn),-3%
COc1ccc(NC(=O)CCCNC(=O)c2ccc(Cl)cc2)cc1S(=O)(=O)N1CCOCC1,-7%
O=C(NC1(C(F)(F)F)C(=O)Nc2c1c(=O)[nH]c(=O)n2Cc1ccccc1)c1ccc(Cl)cc1Cl (stereo not drawn),20%
CC1=CSC2=NC(=O)/C(=C\c3cccn3-c3ccc([N+](=O)[O-])cc3)C(=N)N12,-13%
Cc1cc(C)c(NC(=O)/C(=C/c2ccccc2)c2ccccc2)c(C)c1,?
Cc1ccc(-n2nc(C(=O)NCCN(C)C)c(=O)n(C)c2=O)cc1,3%
CC(c1nc2ccccc2c(=O)[nH]1)N1CCOCC1 (stereo not drawn),-10%
FC(F)(F)c1cc(Nc2nc3ccccc3c3nncn23)ccc1Cl,8%
COc1cccc(C(=O)Nc2ccccc2-c2nnc(-c3cccc(OC)c3)o2)c1,-2%
Cc1sc2nc(CC(=O)NN)[nH]c(=O)c2c1C,-6%
CC(C)CC(OC(=O)c1nsc(Cl)c1Cl)C(=O)NCc1cccs1 (stereo not drawn),1%
Cc1ccc(NC(=O)CCc2ccc(S(=O)(=O)N3CCOCC3)cc2)c(O)c1,-6%
O=C(O)C1C2CC2CN1C(=O)c1ccc(Cl)cc1 (stereo not drawn),-16%
S=c1[nH]nc(-c2ccccn2)n1/N=C/c1ccc(Cl)c(Cl)c1,-26%
Cc1cc(C)c(NC(=O)CCN2CCCCC2)c(C)c1,-4%
COc1ccc(C)cc1NC(=O)CSc1ccc(-c2sc(C)nc2C)nn1,0%
CC(C)(C)c1nnc(NC(=O)C2CCN(C(=O)c3ccccc3)CC2)s1,2%
O=C(NCc1ccncc1)c1cc2ccccc2nc1Cl,8%
Cc1ccc(S(=O)(=O)N(CC(=O)N2CCC(C(N)=O)CC2)c2cccc(C(F)(F)F)c2)cc1,8%
Cc1ccc(S(=O)(=O)c2cc3c(=O)n4ccccc4nc3n(C3CCCC3)c2=N)cc1,-1%
O=C(Cn1nnc(-c2ccccc2)n1)N1CCN(S(=O)(=O)c2ccc(Cl)cc2)CC1,0%
CC(C)CN(C(=O)COC(=O)C1=COCCO1)c1c(N)n(Cc2ccccc2)c(=O)[nH]c1=O,-8%

Sorted by value in VDR inh (smallest number first): some entries from above
canonical_smiles,VDR inh
Cc1sc2nc(CC(=O)NN)[nH]c(=O)c2c1C,-6%
Cc1ccc(S(=O)(=O)c2cc3c(=O)n4ccccc4nc3n(C3CCCC3)c2=N)cc1,-1%
Cc1ccc(S(=O)(=O)N(CC(=O)N2CCC(C(N)=O)CC2)c2cccc(C(F)(F)F)c2)cc1,8%

Additional entries.
canonical_smiles,VDR inh
CCOc1ccc(S(=O)(=O)N2CCN(c3cc(Cl)ccc3Cl)CC2)c2ccccc12,-16%
CCOC(=O)C1CCCN(S(=O)(=O)CCNC(=O)c2ccc3c(c2)OCO3)C1 (stereo not drawn),-18%
CC(C)(C)OC(=O)N[C@@H](COCc1ccccc1)C(=O)N[C@@H](CO)[C@H](O)[C@@H]1C[C@@H]1C(=O)N1CCCC1,-11%
O=C(COC(=O)c1cnccn1)NCCc1ccc(Cl)cc1,13%
CC(C)c1ccc(OCc2ccc(C(=O)NN3CCN(C)CC3)o2)cc1,14%
Cc1cccc(Nc2nnc(SCC(=O)N(C)C3CCS(=O)(=O)C3)s2)c1C (stereo not drawn),-1%
CC(=O)NCCn1c(SCc2ccc(C)cc2C)nc2ccccc2c1=O,-21%
COc1ccc(CCN(C)C(=O)c2cc(=O)c3ccccc3o2)cc1OC,-6%
N#Cc1ccccc1NC(=O)C(=O)NCC(c1ccc2c(c1)OCO2)N1CCN(c2ccccc2)CC1 (stereo not drawn),0%
CCOC(=O)[C@H]1[C@H]2COc3cc(OC)ccc3[C@@H]2N2C(=O)c3cc(F)ccc3NC(=O)[C@@]12C,-7%
O=C(O)c1ccc(C(=O)O)c(C(=O)c2ccccc2)c1,-11%
CCCCC(=O)Nc1cccc(NC(=O)c2cccc([N+](=O)[O-])c2)c1,3%
COc1ccc(NC(=O)CSc2nncn2C)cc1,2%
CC1CCN(c2cc3c(cc2F)c(=O)c(S(=O)(=O)c2ccc(Cl)cc2)cn3C)CC1,6%
O=C(c1cn[nH]c1)c1cc(F)ccc1O,2%
CC(C)(C)c1cc(NC(=O)c2ccco2)n(-c2ccccc2)n1,7%
Cc1cccc(C)c1OCc1cc(C(=O)NCc2cn(C)nc2C)no1,-12%
Nc1cccc(Oc2ccc([N+](=O)[O-])cc2)c1,-11%
COCCCNC(=O)c1c(N)n(-c2ccc3c(c2)OCO3)c2nc3ccccc3nc12,-9%
Cn1c(SCC(=O)Nc2cc([N+](=O)[O-])ccc2F)nnc1C(F)(F)F,-15%
Cc1cc(C(=O)CCC(=O)N2CCN(S(=O)(=O)c3ccccc3)CC2)c(C)s1,-17%
CCCc1[nH]c2ccc(C#N)cc2c1CCC,-25%
Cc1ccc(CCNC(=O)c2nn(C)c3c2CS(=O)(=O)c2ccccc2-3)cc1,0%
Cc1nc2ccccc2c(=O)n1/N=C/c1ccc(O)cc1O,-1%
Cc1ccc(CNc2c(C=O)c(=O)[nH]c3ccccc23)cc1,8%
CCC(C)n1c(-c2cccc(S(=O)(=O)N3CCOCC3)c2)n[nH]c1=S (stereo not drawn),-14%
O=C(Cc1ccc(Cl)cc1)Nc1ccc(NC(=O)c2cccs2)cc1,?
COc1ccc(OC)c(-n2c(Cn3c(-c4ccccn4)nc4ccccc43)n[nH]c2=S)c1,-22%
CC1=C(CC[C@@H](C)CO)OC2CC3C4CCC5CC(O)CCC5(C)C4CC(=O)C3(C)C12 (stereo partly drawn),3%
COc1ccc2[nH]cc(CCNc3ncnc4ccc(-c5ccoc5)cc34)c2c1,?

In the list so far, these contain a COOH group.
canonical_smiles,VDR inh
Cc1nn(Cc2ccc(Cl)cc2)c(C)c1NC(=O)C1CC=CCC1C(=O)O (stereo not drawn),-1%
Cc1cc(C(=O)O)c(CSc2ncn[nH]2)o1,4%
O=C(O)C1C2CC2CN1C(=O)c1ccc(Cl)cc1 (stereo not drawn),-16%
O=C(O)c1ccc(C(=O)O)c(C(=O)c2ccccc2)c1,-11%

Continued:
canonical_smiles,VDR inh
CC(C)(C)NC(=O)C1CCN(S(=O)(=O)c2cccc3nsnc23)CC1,-10%
COc1ccc(C(=O)Nc2cccc(-c3cn4ccsc4n3)c2)cc1OC,17%
CCC(C)Sc1ccc([C@H]2N[C@@](C)(C(=O)OC)[C@H]3C(=O)N(C)C(=O)[C@@H]23)cc1 (stereo partly drawn),-11%
COc1ccccc1Oc1cc(F)nc(N)n1,-11%

Some of the compounds tested (hit frequency here may not be typical).
